CBX7 AlphaScr: inhibitors of human CBX7 binding to H3K27me3 peptide; O95931; AlphaScreen His6-CBX7 / biotin-H3K27me3 peptide binding; active compounds read low; normalised signal (fraction of DMSO) (no concentration beside the values); 66,000 compounds, 1.1% hits; AID 1224903; in the data active means normalised signal below about 0.5;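 further: 100 nL library stock added to about 20 µL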
Target sequence (O95931 whole entry, looked up): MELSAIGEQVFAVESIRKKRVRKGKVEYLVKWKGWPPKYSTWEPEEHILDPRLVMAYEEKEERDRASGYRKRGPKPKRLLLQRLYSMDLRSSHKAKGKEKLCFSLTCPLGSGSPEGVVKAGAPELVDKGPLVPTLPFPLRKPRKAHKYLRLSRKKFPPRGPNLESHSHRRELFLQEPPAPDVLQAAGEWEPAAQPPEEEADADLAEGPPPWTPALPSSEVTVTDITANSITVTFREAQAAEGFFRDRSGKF
CBX7 AlphaScr z-score: recorded beside CBX7 AlphaScr, whose call it bears; z-score; measured here: z-score of CBX7 signal; some inactives read as strong as hits; reference of the scale not given here;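 same signal on another scale; lower means less binding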
Active calls of the source: *. This is a subset; count on the stated rates, not on these rows.

Sequence of screens: CBX7 AlphaScr z-score	CBX7 AlphaScr
- CC(=O)N1CCc2cc(S(=O)(=O)NC3CCN(Cc4ccccc4)CC3)ccc21
  -2.1	0.94
- CCN(CC)c1cc(C)c2cc(NC(=O)CNC(C)=O)ccc2n1
  -0.34	0.97
- CCOc1ccccc1C1CC(=O)Nc2cc(OC)cc(OC)c21 (configuration not stated)
  1.3	1.1
- Fc1ccc(-c2cc(-c3nc(-c4c(F)cccc4F)no3)c3ccccc3n2)cc1
  0.14	1.1
- CCOc1ccc(NC(=O)C2CCN(c3nnc(-n4cccc4)s3)CC2)cc1
  1.1	1
- Cc1cc(NC(=O)CSc2nc(NCc3ccc(Cl)cc3)c3ccccc3n2)n[nH]1
  -0.47	0.83
- Cc1ccccc1CN1CCN(CC(=O)NCCCN2CCN(c3ccc(F)cc3)CC2)C1=O
  -1.7	0.89
- Cc1ccc(NS(=O)(=O)c2ccc3c(c2)CCC(=O)N3)cc1Cl
  -1.8	0.92
- O=C(NCc1ccc(F)cc1)C1(S(=O)(=O)c2ccc(Cl)cc2)CC1
  0.16	1.1
- CCOc1cccc2cc(-c3nnc(Nc4ccc(F)cc4)s3)c(=O)oc12
  -0.34	0.98
- Cc1cccc(NC(=O)c2ccccc2NC(=O)c2cccc(S(=O)(=O)N3CCCCCC3)c2)c1
  -0.092	0.99
- Cc1cc2cc(CCNC(=O)c3cc4ccccc4o3)c(=O)[nH]c2cc1C
  -1.5	0.89
- CN(CC(=O)NCc1ccc(F)cc1)S(=O)(=O)c1ccc2c(c1)n(C)c(=O)c(=O)n2C
  1.4	1.2
- Cc1ccc(-c2cc(C(=O)N3CCCCC3)c3ccccc3n2)cc1C
  -2.4	0.78
- CCOc1ccc(-c2cc(C(=O)O)c3ccccc3n2)c(OCC)c1
  -0.05	0.96
- Cc1nc(Nc2nc3c(c(=O)[nH]2)CCCC3)nc2c(C)cccc12
  0.26	1
- CCN(CC)CCCNC(=O)CNC(=O)c1nn(-c2ccc(OC)c(OC)c2)c(=O)c2ccccc12
  -0.1	0.99
- CCOc1ccc(-c2nnc(Nc3ccc(F)cc3)c3ccccc23)cc1
  0.023	1
- O=C1CCc2cc(S(=O)(=O)NC(Cc3c[nH]c4ccccc34)C(=O)NC3CCCCCC3)ccc2N1 (configuration not stated)
  -0.75	0.95
- COc1ccc(-c2nn(-c3ccccc3)cc2C(=O)Nc2ccc(Cl)cc2)cc1OC
  -0.91	0.94
- CCCCCn1c(SCC(=O)N2CCCC2)nc2cc(C(=O)NCC3CCCO3)ccc2c1=O (configuration not stated)
  1.5	1.2
- Cc1ccc(-c2nc(N3CCCC3)c3ccccc3n2)cc1
  3	1.1
- Cc1ccsc1C1CC(=O)Nc2cc3c(cc21)OCO3 (configuration not stated)
  -0.1	0.99
- COc1ccccc1Nc1cc(C)nc2ncnn12
  -0.32	0.99
- COc1ccc(OC)c(C2=NOC(C(=O)N3CCN(c4ccc(F)cc4)CC3)C2)c1 (configuration not stated)
  -1.9	0.95
- COc1cccc(C(=O)N2CC(=O)Nc3ccc(C)cc3C2c2ccc(F)cc2)c1 (configuration not stated)
  -3.9	0.79
- O=C(NCc1ccc(F)cc1)c1ccc2c(c1)N(Cc1ccccc1F)C(=O)CS2
  0.29	1
- COc1ccccc1N1CCN(c2nc(-c3ccccc3)cc(C(F)(F)F)n2)CC1
  2.3	1.2
- O=C1c2ccccc2C(=O)N1c1ncc(Cc2cc(Cl)ccc2Cl)s1
  0.16	1
- CC(C)(c1ccccc1)c1ccc(OCCN2CCOCC2)cc1
  -10*	0.3*
- C=CCn1c(=N)n(CC(O)c2ccc(Cl)cc2)c2ccccc21 (configuration not stated)
  0.3	1.1
- O=C1CC(c2ccc(Br)cc2)c2cc3c(cc2N1)OCCO3 (configuration not stated)
  -1.9	0.76
- CC(C)CN(CCCNC(=O)c1csc2c1CCCC2)CC(C)C
  2.7	1.1
- CCN(CC)S(=O)(=O)c1ccc2c(c1)N(CC(=O)NCc1ccccc1)C(=O)CS2
  0.16	1
- CCN(CCCNC(=O)c1cc(Nc2ccc(OC)cc2OC)nc2ccccc12)c1cccc(C)c1
  -5.1	0.66
- Cc1cccc(Nc2nc(-c3ccc(Cl)cc3)cs2)c1
  -3.9	0.76
- COc1ccc(CCNC(=O)C2CCC(=O)N2CCc2ccccc2)cc1OC (configuration not stated)
  0.98	1
- Cc1ccc(CCN2CC(C(=O)NCc3ccc(F)cc3)CC2=O)cc1 (configuration not stated)
  1.5	1
- COc1ccc(CCNC(=O)c2cc(Nc3cccc(SC)c3)nc3ccccc23)cc1OC
  10	1.4
- CCc1c(C)nc2[nH]nc(-c3ccccc3C)n2c1=O
  -0.47	0.88
- COc1ccc(CCN2C(=O)N(c3ccccc3)C(=O)C2CC(=O)Nc2ccc(F)cc2)cc1OC (configuration not stated)
  0.52	1.1
- NC(=O)c1cc2nc(-c3cccs3)cc(C(F)(F)F)n2n1
  -0.26	0.97
- CC(C)C(C(=O)Nc1cccc(C(F)(F)F)c1)N1C(=O)c2ccccc2C1=O (configuration not stated)
  -0.68	0.83
- Clc1ccc2nc3c(c(Nc4ccc5c(c4)OCO5)c2c1)CCCC3
  -0.24	0.83
- Cc1ccc2nc(-c3ccc(NC(=O)c4cccc(F)c4)cc3)oc2c1
  -1.7	0.84
- COc1ccc(CCNC(=O)C2CCN(C(=O)c3cc4sccc4n3C)CC2)cc1OC
  -0.4	0.98
- CC(CCc1ccccc1)NC(=O)C1C2C=CC3(CN(Cc4ccccc4Cl)C(=O)C13)O2 (configuration not stated)
  0.36	1
- O=C(NC1CCCCCC1)C1CCCN(c2nnc(-n3cccc3)s2)C1 (configuration not stated)
  1.7	1.1
- COc1ccc(-c2nc(CS(=O)(=O)CC(=O)NCCc3cc(OC)ccc3OC)c(C)o2)cc1
  -2.3	0.92
- O=C(CC1Sc2ccc(C(F)(F)F)cc2NC1=O)Nc1ccc2c(c1)OCO2 (configuration not stated)
  0.42	1

Remaining list, next part.
Sequence of screens: CBX7 AlphaScr z-score	CBX7 AlphaScr
- CCCN(CCC)CCCNC(=O)CCC(=O)Nc1ccc2nc(N3CCC(C)CC3)cc(C)c2c1
  1.6	1
- Cc1ccccc1CN1CCN(CC(=O)NCc2cccnc2)C1=O
  2	1
- Cc1ccccc1-n1cc(-c2ccccc2)nc1SCC(=O)NCCc1ccccc1
  -5.6	0.83
- COc1ccc(OC)c(CN2CCN(Cc3cccc(Br)c3)CC2)c1
  -0.066	0.99
- Cc1ccccc1-c1nc(CN2CCC(C(=O)NCc3ccccc3)CC2)c(C)o1
  -1.5	0.86
- CC1CCN(C(=O)CSc2nc(NCc3ccc(Cl)cc3)c3ccccc3n2)CC1
  -3.3	0.94
- CCOC(=O)N1CCC(NC(=O)c2cc3sc(Cl)cc3n2C)CC1
  2.5	1.1
- COc1ccc(-c2nnc(NC(=O)c3ccc(S(=O)(=O)N4CC(C)CC(C)C4)cc3)o2)c(OC)c1 (configuration not stated)
  -0.67	0.97
- c1ccc2c(-c3nc(C4CCCCC4)no3)cc(-c3ccncc3)nc2c1
  -6.6*	0.49*
- CC1CCCCC1NC(=O)c1nnc(Cc2ccc(F)cc2)o1 (configuration not stated)
  -0.67	0.94
- Cc1ccccc1OCC(O)Cn1c(Cc2ccccc2)nc2ccccc21 (configuration not stated)
  0.25	1
- COc1ccc(CNC(=O)c2cc(-c3ccccc3OC)on2)cc1
  -0.0029	1
- Cc1ccc(NC(=O)CCc2c(C)nc3nc(C)nn3c2C)cc1
  0.33	1.1
- COCCNC(=O)CSc1nc(-c2ccc(F)cc2)[nH]c1-c1ccc(C)cc1
  -1.6	0.91
- COc1ccc(C)cc1-n1cnc2cc(C(=O)NC3CCCCC3C)ccc21 (configuration not stated)
  -1.1	0.96
- O=C(C1CCCN(Cc2cccnc2)C1)N1CCCCC1 (configuration not stated)
  1.6	1.1
- CCC(Cc1ccccc1)NC(=O)CS(=O)(=O)Cc1nc(-c2cccc(OC)c2)oc1C (configuration not stated)
  -3	0.7
- Cc1ccc(Cn2c(=N)n(CC(O)c3ccco3)c3ccccc32)cc1 (configuration not stated)
  -2.5	0.84
- Cc1cc(-c2ccccc2)n(-c2cc(N3CCOCC3)ncn2)n1
  -0.39	0.96
- Cc1cccc(OCCOCCn2c(-c3ccc(Cl)cc3)nc3ccccc3c2=O)c1C
  6.8	1.7
- COCc1nc2ccccc2n1CCOc1cccc(C)c1
  0.86	1
- COc1ccc2nc(NC(=O)C3CCCN3S(=O)(=O)c3cccc4cccnc34)sc2c1 (configuration not stated)
  0.62	1.1
- CCN1C(=O)CSc2ccc(C(=O)NC3CCCCC3)cc21
  2.7	1.1
- Cc1nc(Nc2ccccc2F)c2cc(C)sc2n1
  0.41	1
- CCOc1ccc2nc(N3CCCC(C(=O)NCCc4ccc(Cl)cc4)C3)sc2c1 (configuration not stated)
  -0.65	0.98
- CCOc1ncccc1C(=O)Nc1ccc(Cl)cc1
  3.3	1.1
- CN(C(=O)C1CCC(CNS(=O)(=O)c2cccc3cccnc23)CC1)C1CCCCC1 (configuration not stated)
  0.033	1
- Cn1c(=O)c(=O)n(C)c2cc(S(=O)(=O)N3CCCC3C(=O)Nc3cccnc3)ccc21 (configuration not stated)
  2.2	1.2
- COc1cc(NC(=O)c2csc3c2CCCC3)ncn1
  -0.59	0.98
- CC(=O)N1c2ccc(S(=O)(=O)N3CCN(c4ccccc4Cl)CC3)cc2CC1C (configuration not stated)
  -3.3	0.93
- O=C(CC(C(=O)N1CCc2ccccc21)n1ccnc1)NCc1cccnc1 (configuration not stated)
  -1.4	0.94
- Cc1ccc(CN2C(=O)CSc3ccc(C(=O)NCc4ccccc4Cl)cc32)cc1
  0.13	1
- COc1ccc(-c2nc3cnccn3c2NC2CCCC2)cc1
  1.7	1.2
- COc1ccc(NC(=O)CCc2c(C)nc3c(-c4ccccc4)c(C)nn3c2C)cc1Cl
  -0.54	0.98
- Cc1ccc(Nc2ncc(C(=O)NCCCN3CCN(C)CC3)c3ccccc23)cc1Cl
  6.1	1.2
- CCc1ccc(N(CC)C(=O)c2ccc3c(=O)n4c(nc3c2)CCCCC4)cc1
  -0.12	0.94
- Cc1ccc(C(=O)Nc2c(C(=O)N3CCOCC3)cnn2-c2ccccc2)cc1
  -0.26	0.99
- O=C(NCc1ccccn1)c1ccc2c(=O)n3c(nc2c1)CCCCC3
  0.13	1.1
- Cc1ccc2sc(-c3ccc(NC(=O)c4ccccc4)cc3)nc2c1
  2.5	1.1
- CC(C)CCNC(=O)C1CCN(c2nc3ccccc3[nH]2)CC1
  -1.7	0.85

3 entries from above, set out differently.
O=C(NCc1ccccn1)c1ccc2c(=O)n3c(nc2c1)CCCCC3
  CBX7 AlphaScr z-score: 0.13	CBX7 AlphaScr: 1.1

Cc1ccc2sc(-c3ccc(NC(=O)c4ccccc4)cc3)nc2c1
  CBX7 AlphaScr z-score: 2.5	CBX7 AlphaScr: 1.1

CC(C)CCNC(=O)C1CCN(c2nc3ccccc3[nH]2)CC1
  CBX7 AlphaScr z-score: -1.7	CBX7 AlphaScr: 0.85

Some of these compounds in order of the CBX7 AlphaScr z-score value, highest first.
compound,CBX7 AlphaScr z-score
Cc1ccc2sc(-c3ccc(NC(=O)c4ccccc4)cc3)nc2c1,2.5
COc1ccc(-c2nc3cnccn3c2NC2CCCC2)cc1,1.7
O=C(NCc1ccccn1)c1ccc2c(=O)n3c(nc2c1)CCCCC3,0.13
CCc1ccc(N(CC)C(=O)c2ccc3c(=O)n4c(nc3c2)CCCCC4)cc1,-0.12
COc1ccc(NC(=O)CCc2c(C)nc3c(-c4ccccc4)c(C)nn3c2C)cc1Cl,-0.54
O=C(CC(C(=O)N1CCc2ccccc21)n1ccnc1)NCc1cccnc1 (configuration not stated),-1.4
CC(C)CCNC(=O)C1CCN(c2nc3ccccc3[nH]2)CC1,-1.7

(next part)
Sequence of screens: CBX7 AlphaScr z-score	CBX7 AlphaScr
- Cc1c(C)n(CC(O)CNC2CCCCC2C)c2ccccc12 (configuration not stated)
  -5.3	0.88
- COc1ccc(OC)c(NC(=O)CCc2c(C)nc3c(c(C)nn3-c3ccc(C)cc3)c2C)c1
  -0.061	0.99
- Cc1csc2ncc(C(=O)NCc3ccc4c(c3)OCO4)c(=O)n12
  -1.6	0.87
- Cc1cccc2nc(-c3ccsc3)c(Nc3ccc4c(c3)OCO4)n12
  -5.9	0.78
- O=C(O)CCC(=O)NCC1(c2ccccc2)CCOCC1
  0.89	1.1
- CS(=O)(=O)c1ccc2nc(NC(=O)CCCN3C(=O)c4ccccc4C3=O)sc2c1
  -1	0.96
- Cc1cc(N2CCN(c3ncccn3)CC2)nc2ccc(NC(=O)c3ccncc3)cc12
  0.47	1.1
- O=C1NC(c2ccc(F)cc2)c2c(-c3ccccc3)n[nH]c21 (configuration not stated)
  0.24	1
- COc1ccc(C2CC(c3ccc(Cl)cc3)n3ncnc3N2)cc1 (configuration not stated)
  0.37	1
- CN(C)c1ccc(/C=C/c2nc(-c3ccccc3O)n(-c3ccccc3)n2)cc1
  -6	0.82
- O=C(Nc1c(F)cc(F)cc1Br)c1cc(-c2ccc(F)cc2)on1
  0.79	1
- COCCNC(=O)CSc1nc(-c2cccc(OC)c2)[nH]c1-c1ccc(Cl)cc1
  -0.64	0.98
- CC(C)=CCc1c(O)cc(O)c2c1O[C@H](c1ccccc1)CC2=O
  -5.7	0.58
- CC(=O)Nc1nc2nc(C)cc(=O)n2[nH]1
  0.4	1.1
- COc1ccc2nc(NC(=O)CSc3nc4ccccc4s3)sc2c1
  -0.054	1
- CC(=O)N1c2ccc(S(=O)(=O)NCc3ccc4c(c3)OCO4)cc2CC1C (configuration not stated)
  -0.039	1
- COc1ccc(Br)cc1CNC(=O)Cn1ncc2ccccc21
  -1.5	0.95
- Cc1ccc(S(=O)(=O)N(CC(=O)Nc2cccnc2)c2cc(Cl)ccc2C)cc1
  -0.2	0.92
